Screening results: PubChem, National Center for Advancing Translational Sciences (NCATS)
RE007 growth inh: less growth of the S. pombe RE007 Vpr strain. S. pombe RE007 Vpr strain, BacTiter-Glo ATP luminescence, 24 h; control for the full effect not named in the record. Potency, µM (titrated, usually from 92.2 µM), inactives show at the top dose activity change, negative = less growth. actives 0.21% (n = 360,000). AID 651644; active = well fitted falling curve with a large enough effect; inconclusive = small, poorly fitted or top-dose-only effect; inactive = no such curve, though single readings can be large or run the other way;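 further: on the % scale 0 is the no-effect control and ±100 the full control effect; nearly all actives have a fitted effect of over 50% in size; the assay follows cell death caused by Vpr and the record does not say whether a fall means rescue or toxicity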
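Fission yeast RE007 carrying one integrated HIV-1 vpr copy, seeded at OD 0.01 in PMG+AL medium with 23 nL pinned compound. Grown 24 h at 30 degrees; viability read by BacTiter-Glo luminescence after 5 min.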
MARV entry inh: Marburg virus entry inhibition. Marburg virus pseudotyped entry inhibition, cell reporter; control for the full effect not named in the record; about a third of the inactives were read at about 46 µM. Potency, µM (top dose mostly 37.8 µM), without a hit: at the top dose activity change, negative = inhibition, most hits filed as inhibitors. actives 1.8% (n = 300,000). AID 540276; active = well fitted inhibition curve with a large enough effect; inconclusive = small, poorly fitted or top-dose-only effect, or effect the other way; inactive = flat fitted curve, though single readings scatter; tested in HEK293 cells; about a fifth of its hits are not listed in these tables; further: on the % scale 0 is the no-effect control and ±100 the full control effect; luciferase read-out
Cruzain inh noDet: cruzain (T. cruzi) inhibition without detergent; P25779; AID 1476; purified cruzain, Z-FR-AMC fluorescence, no detergent; actives 2.3% (n = 200,000); Potency, µM, inactives show max response, negative = inhibition, actives largely listed as inhibitors;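 further: plate controls were enzyme without inhibitor for no effect and buffer without enzyme for full effect; nearly all actives have a fitted effect of over 40% in size; top concentration of the series not given in the record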
Target sequence (P25779 123-467 limits assumed): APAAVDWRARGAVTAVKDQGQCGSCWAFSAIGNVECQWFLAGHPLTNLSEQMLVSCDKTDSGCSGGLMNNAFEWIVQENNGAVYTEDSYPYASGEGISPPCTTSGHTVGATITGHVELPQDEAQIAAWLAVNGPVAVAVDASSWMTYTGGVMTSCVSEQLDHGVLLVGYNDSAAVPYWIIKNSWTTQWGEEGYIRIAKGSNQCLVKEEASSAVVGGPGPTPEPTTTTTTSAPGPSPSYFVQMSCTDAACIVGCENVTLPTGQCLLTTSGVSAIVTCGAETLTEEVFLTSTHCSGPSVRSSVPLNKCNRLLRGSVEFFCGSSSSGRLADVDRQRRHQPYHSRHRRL
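Detergent-free condition (0.00005% Triton X-100) in acetate buffer pH 5.5 with DTT. 1.5 nM enzyme and compound were pre-mixed 15 min, then 2 uM Z-FR-AMC substrate added; reaction progress from fluorescence change between first and third reads (60 s).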
2A StopGo: FMDV 2A StopGo reporter, luciferase signal; Potency, µM (highest dose often 57.9 µM), for the others: at the highest dose signal change, negative = less light; actives 1.2% (n = 410,000); human cells with a luciferase reporter of 2A StopGo recoding; control for the full effect not named in the record; active = well fitted falling curve with a large enough effect; inconclusive = small, poorly fitted or top-dose-only effect; inactive = no such curve, though single readings can be large or run the other way; tested in HEK293T cells; further: on the % scale 0 is the no-effect control and ±100 the full control effect; nearly all actives have a fitted effect of over 45% in size; luciferase light after 4 h
SARS PLP yeast: SARS-CoV PLP inhibition in yeast. AID 485353. Potency, µM (titrated, usually from 32.9 µM), without a hit: at the highest dose activity, positive = growth rescue. S. cerevisiae expressing SARS-CoV PLpro, growth rescue; control for the full effect not named in the record. actives 0.19% (n = 330,000); active means well fitted rising curve with a large enough effect; inconclusive means small, poorly fitted or top-dose-only effect; inactive means no such curve, though single readings can be large or run the other way; further: 0% is about no effect; nearly all actives have a fitted effect of over 55% in size; growth read by luminescence after 48 h
Cruzain inh Det: cruzain (T. cruzi) inhibition with detergent; P25779; purified cruzain, Z-FR-AMC fluorescence, 0.01% Triton; Potency, µM, for the others: max response, negative = inhibition, actives largely listed as inhibitors; actives 0.43% (n = 200,000); AID 1478;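 further: plate controls were neutral wells for no effect and buffer without enzyme for full effect; nearly all actives have a fitted effect of over 40% in size; top concentration of the series not given in the record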
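Detergent-containing arm of a paired screen for aggregation-based inhibition: 0.01% Triton X-100 present. Cruzain at 1.5 nM cleaved 2 uM Z-FR-AMC at pH 5.5 with 5 mM DTT; AMC fluorescence gain over 60 s measured activity.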
Lassa entry inh: inhibitors of Lassa virus binding or cell entry; Lassa virus pseudotype entry inhibition, cell reporter; control for the full effect not named in the record; Potency, µM (highest dose often 37.9 µM), without a hit: at the highest dose activity change, negative = inhibition, most hits filed as inhibitors; actives 1.2% (n = 300,000); AID 540256; active means well fitted inhibition curve with a large enough effect; inconclusive means small, poorly fitted or top-dose-only effect, or effect the other way; inactive means flat fitted curve, though single readings scatter; tested in HEK293 cells; further: on the % scale 0 is the no-effect control and ±100 the full control effect; nearly all actives have a fitted effect of over 50% in size; luciferase read-out
NS1 function inh: blocks influenza NS1 protein function; actives 0.4% (n = 270,000); S. cerevisiae slowed by influenza A NS1, growth recovery by OD600; Potency, µM (top dose mostly 46.1 µM), for the others: at the top dose activity, positive = more growth; active means well fitted rising curve with a large enough effect; inconclusive means small, poorly fitted or top-dose-only effect; inactive means no such curve, though single readings can be large or run the other way; further: nearly all actives have a fitted effect of over 50% in size
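OD600 was taken as the measure of yeast growth restored by compound in an NS1-expressing S. cerevisiae strain. Cells had been washed out of glucose medium and diluted 1:100 into galactose -URA medium, pH 6.0.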
The depositor's hits bear a star; ? = inconclusive; . = no result given; & = joins results of further samples; [ ] = remark or other dose. Unless noted, the call rests on the fitted dose curve; in most records, active means well fitted curve in the direction sought with a large enough effect; inconclusive means small, poorly fitted or top-dose-only effect, or another doubt; inactive means no such curve, though single readings can be large; an effect the other way counts as inactive or inconclusive. Potency means the concentration at half of the fitted maximal effect. Outcome played no part in choosing rows; about 4.8% have a hit in one of these screens.

SMILES | RE007 growth inh | MARV entry inh | Cruzain inh noDet | 2A StopGo | SARS PLP yeast | Cruzain inh Det | Lassa entry inh | NS1 function inh
CC1CC(C)CN(C(=O)CCCn2c(=S)[nH]c3ccccc3c2=O)C1 (stereo not given) | 2% | -16% | -21% | -11% | 1% | -4.9% | 15% | -9%
Cc1nc(-c2ccncc2)sc1C(=O)Nc1ccc(Cl)cc1 | 4% | -10%[46.1 µM] | . | 1% | 11% | . | 10% | -2%
Cc1ccc(NC(=O)C(c2ccccc2)c2ccccc2)c(O)c1 | 4% | 1% | . | 3% | -7% | . | 2% | -27%
N#Cc1ccsc1NC(=O)CN1CCN(Cc2ccccc2)CC1 | -25% | 1%[46.1 µM] | . | ? | 0% | . | 3% | .
COc1ccc(-c2nc(CS(=O)CC(=O)NCc3ccccc3OC)c(C)o2)cc1 (stereo not given) | . | ? | -5% | 4% | . | 2.2% | 3%[46.1 µM] | .
Cc1cccc(C(=O)N2CC3(C)CC2CC(C)(C)C3)c1 (stereo not given) | -1% | -1% | 6% | 17% | 23% | -2.2% | 1% | 16%
CCOc1ccc(Br)cc1S(=O)(=O)Nc1ccc(C(=O)OCC(=O)N(C)c2ccccc2)cc1 | -14% | -12% | -16% | 32%[activator] | 4% | -7.3% | 10% | 12%
Cc1nn(CC(=O)Nc2ccc(Br)cc2F)c(=O)c2cccn12 | -7% | -1%[46.1 µM] | . | 8% | -2% | . | 12%[46.1 µM] | 0%
CCC(=O)N1CCCc2cc(S(=O)(=O)N3CCC(C(=O)NC4CCC(C)CC4)CC3)ccc21 (stereo not given) | . | . | ? | -20% | . | -1.5% | -28%[46.1 µM] | .
CN(CC(=O)NNC(=O)CNC(=O)c1ccccc1Cl)S(=O)(=O)c1ccc(Cl)cc1 | 2% | 25% | . | 4% | 4% | . | 5% | .
Cc1ccc(NC(=S)N2CCCC(CO)C2)c(C)c1 (stereo not given) | 0% | 18%[46.1 µM] | . | -1% | -1% | . | 15% | 8%
O=C(Oc1cccc(N2C(=O)C3C4c5ccccc5C(c5ccccc54)C3C2=O)c1)c1ccco1 (stereo not given) | -5% | -25% | ? | 0% | 18% | -1.0% | 8.9µM* | 27%
COc1ccc(OCCOCCOc2ccc(C)cc2[N+](=O)[O-])cc1 | . | -6% | -2% | -5% | -7% | -7.0% | 14% | -1%
Cc1cc(NC(=O)c2c([N+](=O)[O-])cnn2C)no1 | 22% | ? | 8% | 4% | 3% | 3.4% | -2% | 12%
CCCNc1c(NS(=O)(=O)c2ccc(C)c(C)c2)c(=O)oc2ccccc12 | 12% | . | . | 10% | -3% | . | . | 2%
COc1cccc(NC(=O)Cn2c(=O)n(CCCCC(=O)NCc3ccccc3Cl)c(=O)c3ccccc32)c1 | . | ? | -14% | -13% | . | -3.2% | -25%[46.1 µM] | .
O=C1CC(NC(=O)C(F)(F)F)=NN1c1ccccc1 | 14% | -14%[46.1 µM] | . | 3% | 0% | . | 23%[46.1 µM] | 9%
COc1ccc(OC)c(NCc2cccn2-c2nnc(N3CCCCC3)s2)c1 | . | . | 2% | 11% | . | -2.7% | ? | .
CCOC(=O)Nc1ccc2c(CN3C(=O)NC(CC)(CC)C3=O)cc(=O)oc2c1 | 2% | 25%[46.1 µM] | 25% | 21% | 5% | -26% | 24% | 3%
Clc1ccc(CCNc2ncnc3c2c(-c2ccccc2)cn3-c2ccccc2)cc1 | . | . | -3% | -26% | . | 0.6% | -27%[46.1 µM] | .
Cc1ccc(-c2nnc(SCC(=O)n3c4c(c5ccccc53)CCCC4)o2)cc1 | . | 1% | -18% | . | 7% | 1.5% | . | -1%
CCc1ccc(NC(=O)CSc2nc3[nH]ncc3c(=O)[nH]2)cc1 | -16% | 11%[46.1 µM] | . | 7% | -2% | . | 0% | .
Cc1ccc(NC(=O)NC(C)c2c(-n3cccc3)sc(C)c2C)cc1F (stereo not given) | . | ? | ? | -20% | . | -6.9% | . | .
CS(=O)(=O)N(CC(=O)Nc1ccccc1C(=O)N1CCOCC1)c1ccc(F)c(Cl)c1 | 2% | -7% | . | -5% | 0% | . | -29% | 20%

Reprinted from the part before: two compounds; new compounds follow.
SMILES | RE007 growth inh | MARV entry inh | Cruzain inh noDet | 2A StopGo | SARS PLP yeast | Cruzain inh Det | Lassa entry inh | NS1 function inh
Cc1ccc(NC(=O)NC(C)c2c(-n3cccc3)sc(C)c2C)cc1F (stereo not given) | . | ? | ? | -20% | . | -6.9% | . | .
CS(=O)(=O)N(CC(=O)Nc1ccccc1C(=O)N1CCOCC1)c1ccc(F)c(Cl)c1 | 2% | -7% | . | -5% | 0% | . | -29% | 20%
O=C(Nc1ccccn1)C12CC3CC(CC(C3)C1)C2 | -23% | 10% | 1% | 3% | -4% | 6.8% | -18% | -15%
Cc1ccc(S(=O)(=O)C(NC(=O)c2ccccc2)=C(Cl)Cl)cc1 | 11% | ? | . | 13µM* | . | . | ? | .
O=C(CCn1c(=S)oc2ccccc21)NCCC1=CCCCC1 | -8% | . | . | -18% | -1% | . | . | -11%
CCOC(=O)c1cnc(SC)nc1NCCOC | -18% | 9%[46.1 µM] | . | -4% | 0% | . | . | -2%
CCCn1cc(S(=O)(=O)CC(=O)NC2CCCCC2)c2ccccc21 | -24% | -2% | -5% | . | -25% | -1.6% | 0% | -2%
Cc1cc(C)n2nc(C(=O)OCCOc3ccc(F)cc3)nc2n1 | 47% | 14% | -11% | -11% | 0% | -2.1% | 3% | -2%
COc1ccc(C2=CSC3=NCCN23)cc1Br | 1% | 0%[14.2 µM] | . | -1% | . | . | 13% | .
COc1ccc(CC(=O)OCC(=O)N2CCCc3ccccc32)cc1OC | -9% | 9%[46.1 µM] | . | -8% | -11% | . | 12% | .
CCCNC(=O)CSc1c(CCC)cnc2c1c(=O)n(C)c(=O)n2C | . | . | 14% | -9% | . | -0.8% | -24%[46.1 µM] | .
C=CCn1c(O)c(C(C)=Nc2cc(OC)ccc2OC)c(=O)[nH]c1=O | 2% | 3% | 4% | -5% | -1% | 5.2% | -3% | 0%
NC(=O)c1ccc(OCC2CCCO2)cc1 (stereo not given) | 6% | 5%[46.1 µM] | . | 2% | 0% | . | ? | 16%
COc1ccc(Nc2nc(N)c([N+](=O)[O-])c(NC3CCCCC3)n2)cc1 | 33% | ? | . | ? | -3% | . | ? | 11%

The closing 3 records of the part before open the next one:
SMILES | RE007 growth inh | MARV entry inh | Cruzain inh noDet | 2A StopGo | SARS PLP yeast | Cruzain inh Det | Lassa entry inh | NS1 function inh
C=CCn1c(O)c(C(C)=Nc2cc(OC)ccc2OC)c(=O)[nH]c1=O | 2% | 3% | 4% | -5% | -1% | 5.2% | -3% | 0%
NC(=O)c1ccc(OCC2CCCO2)cc1 (stereo not given) | 6% | 5%[46.1 µM] | . | 2% | 0% | . | ? | 16%
COc1ccc(Nc2nc(N)c([N+](=O)[O-])c(NC3CCCCC3)n2)cc1 | 33% | ? | . | ? | -3% | . | ? | 11%
COc1ccc(S(=O)(=O)N2CCOC23CCN(S(=O)(=O)c2ccc(Cl)cc2)CC3)cc1 | -14% | -14% | . | 40%[activator] | -5% | . | 5% | .
CCOC(=O)C1=C(CN(CC)Cc2ccccc2)NC(=O)NC1c1ccc(OC(C)C)cc1 (stereo not given) | . | ? | 5% | ? | . | -7.6% | ? | .
COC(=O)c1ccc(NC(=O)CSc2nnc(COc3ccc4c(c3)CCCC4)o2)cc1 | 9% | -16% | 10µM* | . | -5% | 5.4% | -18% | 6%
CCCC1C2C(=O)N(c3ccccc3)C(=O)C2ON1c1ccccc1 (stereo not given) | -9% | 14% | -10% | 1% | -7% | 2.0% | 9% | 6%
O=C(CSc1nnc(-c2ccc(OC(F)F)cc2)o1)NCc1cccs1 | -1% | 2% | 0% | 5% | 24% | 0.8% | -19% | -4%
COc1ccc(-n2nc(C(=O)NCC(=O)NCc3ccco3)c3ccccc3c2=O)cc1Cl | -5% | -24%&-24% | 21% | -9% | -4% | -15% | 14% | -2%
CCOc1cc(OCC)nc(S(C)(=O)=O)n1 | 0% | 30% | -7% | -22% | 8% | -1.0% | 19% | -3%
CCOc1cc(C(=O)Nc2ncccn2)cc(OCC)c1OCC | 15% | 6% | -1% | -9% | 1% | 0.0% | 8% | 8%
CC1CN(Cc2nc3c(c(=O)n(C)c(=O)n3C)n2Cc2cccc(Cl)c2)CC(C)O1 (stereo not given) | -1% | . | ? | -21% | 3% | 6.9% | . | -52%
Cc1ccc(-c2nnn3c2nc(Cl)c2ccccc23)cc1 | 4% | 21%[46.1 µM] | . | ? | 0% | . | 13%[46.1 µM] | .
Cc1ccc(NC2SC(=O)N(Cc3cccc(C(=O)O)c3)C2=O)cc1 (stereo not given) | -2% | 11% | -1% | 12% | 11% | -0.1% | 2% | ?
NNC(=O)c1oc2nc(-c3ccccc3)cc(-c3ccccc3)c2c1N | -10% | ? | . | -12% | 1% | . | ? | 10µM*
Cc1csc(/N=C/c2ccc([N+](=O)[O-])cc2)n1 | 0% | -10% | 20µM* | 2% | 23% | 0.6% | 0% | 22%
COc1cccc(NC(=O)CCC2CCN(Cc3nccs3)CC2)c1 | 11% | 1% | . | -9% | -2% | . | -21% | 4%
COc1ccc(NC(=O)CN(C)CC(=O)Nc2ccc(Cl)cc2[N+](=O)[O-])cc1 | -12% | 9%[46.1 µM] | . | -10% | 1% | . | ? | .
COc1ccc2c(CNCc3cccs3)c(C(=O)O)n(Cc3ccc(C)cc3)c2c1 | . | . | -4% | -4% | . | -1.7% | -13%[46.1 µM] | .
Cc1cc(=O)[nH]c(N/N=C/c2cccc(Br)c2)n1 | 2% | -5%[46.1 µM] | . | 3% | 0% | . | ? | 2%
CSCCC(NC(=O)COc1ccccc1)C(=O)N1CCCCC1 (stereo not given) | -4% | -1% | . | 4% | -4% | . | -3% | 13%
Nn1c(Cc2ccc(F)cc2)n[nH]c1=S | 11% | 4%[46.1 µM] | . | -6% | 1% | . | . | .
